Compound activity: PubChem, National Center for Advancing Translational Sciences (NCATS)
miR-21 reporter: miR-21 reporter, rising signal | 340,000 tested, under 10 active | AID 2288 | Potency, µM (doses to about 38.3 µM), without a hit: at the top dose reporter change, positive = more light | HeLa miR-21 FLuc reporter, luciferase, 48 h; active = well fitted rising curve with a large enough effect; inconclusive = small, poorly fitted or top-dose-only effect; inactive = no such curve, though single readings can be large or run the other way;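 also: % of control where 0% means no effect; miR-21 action dims this reporter so a rising signal means less miR-21 action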
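Using DMEM plus 10% FBS, HeLa miR-21-FLuc cells are incubated with test compounds (final up to about 40uM) for 48 hours; firefly luciferase signal is then imaged following reagent-mediated lysis.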
Rango-impB inh: inhibitors of Rango-importin beta complex formation. Rango CFP/YFP FRET sensor + importin beta, 45 min. AID 540263. Q14974. Potency, µM (series often up to 92.2 µM), for the others: at the top dose inhibition of complex formation. actives 0.031% (n = 340,000); active = rising FRET ratio curve, often small or poorly fitted; inconclusive = mostly compound fluorescence or quenching in the first reads; inactive = flat curves in all reads;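 also: potency is read from the fitted curve at half-maximal effect; 0% = DMSO wells and 100% = buffer wells lacking importin beta; nearly all actives have a fitted effect of over 15% in size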
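FRET biosensor Rango (snurportin 1 IBB between N-terminal EYFP and C-terminal Cerulean), 50 nM in PBS/1 mM DTT/0.02% Tween-20/0.1% BSA, preincubated 5 min RT with compound; 0.125 microM importin beta added, 45 min RT, CFP/YFP FRET ratio read.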
GLA inh pH 4.5: inhibitors of human alpha-galactosidase A at pH 4.5 | P06280 | purified enzyme, 4-MU-alpha-Gal fluorescence, pH 4.5 | activity change, negative = inhibition, % at 105 µM | 230,000 tested, under 10 active | AID 1467; inconclusive = small, poorly fitted or top-dose-only inhibition, or a rising curve; inactive = flat fitted curve, though single readings scatter; no compound was filed as active;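 also: 0% = full activity with enzyme and -100% = basal without enzyme; dose as in the result columns while the protocol names 77 µM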
Target sequence (P06280 whole entry, looked up): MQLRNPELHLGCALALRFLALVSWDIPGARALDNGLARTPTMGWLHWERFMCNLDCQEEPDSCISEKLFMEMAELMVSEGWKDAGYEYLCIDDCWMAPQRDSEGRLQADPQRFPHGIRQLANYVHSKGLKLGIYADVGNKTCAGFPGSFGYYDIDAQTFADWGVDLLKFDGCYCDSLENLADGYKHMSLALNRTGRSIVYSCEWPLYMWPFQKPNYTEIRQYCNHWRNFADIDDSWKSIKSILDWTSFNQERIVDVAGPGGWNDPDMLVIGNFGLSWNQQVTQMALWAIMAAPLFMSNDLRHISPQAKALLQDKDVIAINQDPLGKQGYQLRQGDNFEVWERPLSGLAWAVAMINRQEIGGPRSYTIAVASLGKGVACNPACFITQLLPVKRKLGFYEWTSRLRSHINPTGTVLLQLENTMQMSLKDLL
Rango dissoc inh: prevents RanGTP from dissociating the Rango-importin beta complex; Biochemical FRET Rango-importin beta, RanGTP-induced dissociation; Potency, µM (series often up to 46.1 µM), inactives show top-dose activity change, negative = inhibition; actives 0.071% (n = 340,000); AID 540253; active means falling FRET ratio curve, often poorly fitted, with flat reads before Ran was added; inconclusive means other falling curves, or compound fluorescence or quenching; inactive means flat or rising ratio curve;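 also: potency is read from the fitted curve at half-maximal effect; % of control where 0% means no effect; nearly all actives have a fitted effect of over 45% in size; -100% = wells without RanGTP and RCC1; the record marks most hits as doubtful in a second field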
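Rango FRET biosensor (snurportin-1 IBB flanked by N-terminal EYFP and C-terminal CFP10) at 0.1 uM, with 0.25 uM importin beta in PBS, 1mM DTT, 0.02% Tween-20, 0.1% BSA. 0.6 uM Ran, 2mM GTP and 0.2 uM RCC1 were then added for 45 min at room temperature. Inhibition read as loss of FRET rise.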
* hit, by the source's call; ? = inconclusive; . = no result given; & = joins results of further samples. The list is partial; rates above refer to the full screens.

Values run as follows: miR-21 reporter | Rango-impB inh | GLA inh pH 4.5 | Rango dissoc inh
COC(=O)c1ccc2c(c1)N(Cc1nc(-c3ccc(Cl)cc3)oc1C)C(=O)C1CCCN21 (stereo not given)
→ . | ? | . | -8%
CCOc1ccc(N2C(=O)CC(NCCNc3ccc(C(=O)c4cccs4)cc3)C2=O)cc1 (stereo not given)
→ 3% | ? | -7 | ?
O=C(O)CCC(=O)Nc1ccc(-c2nc3ccc(C(=O)c4ccccc4)cc3[nH]2)cc1
→ -25% | 3.9% | . | 5%
COC(=O)Nc1sc2c(c1C(N)=O)CCCCCC2
→ -3% | 6.0% | -1 | -11%
COc1ccccc1NC(=O)Cn1nc(C(F)(F)F)c2c1CCCC2
→ 1% | 2.3% | -11 | 6%
COc1cccc(C(=O)Nc2c3c(nn2-c2ccc([N+](=O)[O-])cc2)CS(=O)(=O)C3)c1
→ 5% | 4.3% | . | -15%
CC(=O)Nc1ccc(S(=O)(=O)NC2(C(F)(F)F)C(=O)Nc3c2c(=O)n(C)c(=O)n3C)cc1 (stereo not given)
→ -1% | -0.7% | -4 | 2%
Cc1cc(C)c(C#N)c(OCC(=O)c2ccc(Br)cc2)n1
→ -10% | ? | -1 | ?
O=C(COC(=O)C1CCCCC1)Nc1cc([N+](=O)[O-])ccc1F
→ 0% | 0.6% | -1 | -13%
CCC(C)c1ccc(NC(=O)CC(C)=O)cc1 (stereo not given)
→ -33% | 6.3% | -4 | 36%
CCOc1cc(C(=O)Nc2ccc(C(=O)NCCN(CC)CC)cc2)ccc1OCC(=O)N1CCOCC1
→ . | 4.8% | . | 5%
COCCCN=Cc1c(-c2ccccc2)[nH]n(-c2nc3ccccc3s2)c1=O
→ -4% | -1.0% | -12 | 2%
CC(C)(C)c1ccc(NC(=O)N2CCN(c3ccc([N+](=O)[O-])cn3)CC2)cc1
→ -3% | 0.3% | 4 | 20%
CSCCC(NS(=O)(=O)c1ccc(C)cc1)C(=O)NNC(=O)c1csc(N2CCOCC2)n1 (stereo not given)
→ 0% | 3.6% | . | -16%
O=C(CCN1CCN(c2ccccc2F)CC1)c1ccc(Br)cc1
→ -7% | 4.4% | 3 | 7%
CCn1c(CNc2cccc(C(F)(F)F)c2)n[nH]c1=S
→ 1% | 3.3% | -1 | -2%
Cc1ccccc1NS(=O)(=O)c1ccc2[nH]c(=O)[nH]c2c1
→ -1% | 1.4% | 9 | -20%
COn1c(SCc2ccc(C)cc2C)nc2ccccc2c1=O
→ 19% | 2.5% | -27 | -8%
Cc1cnc2cc(Cl)ccc2c1SCC(=O)O
→ 0% | 4.1% | -1 | -2%
O=C(CSc1n[nH]c(-c2ccco2)n1)Nc1ccccc1F
→ 2% | -0.4% | . | 0%

Next part; it opens with the 2 that closed the last part.
Values run as follows: miR-21 reporter | Rango-impB inh | GLA inh pH 4.5 | Rango dissoc inh
Cc1cnc2cc(Cl)ccc2c1SCC(=O)O
→ 0% | 4.1% | -1 | -2%
O=C(CSc1n[nH]c(-c2ccco2)n1)Nc1ccccc1F
→ 2% | -0.4% | . | 0%
CCCC(C)c1nnc(NC(=O)C2CC(=O)N(CCc3ccc(F)cc3)C2)s1 (stereo not given)
→ -1% | -3.0% | . | 23%
O=C(CSc1nnc(-c2cccs2)n1CC1CCCO1)N1CCCC1 (stereo not given)
→ 0% | -0.6% | 3 | -14%
CCCc1ccc(NC(=O)C2CCN(c3cnccn3)CC2)cc1
→ ? | -3.4% | . | -7%
CCN(C(=O)COc1cc(OC)ccc1C(C)=O)C1CCS(=O)(=O)C1 (stereo not given)
→ . | ? | . | 3%
COC(=O)C1=C(C)N(c2cc(C)cc(C)c2)/C(=C/c2ccco2)C1=O
→ -5% | -1.3% | -4 | -3%
Cc1cc(C)c(NC(=O)CS(=O)CC(=O)NCCN2CCCCCC2)c(C)c1 (stereo not given)
→ 1% | 0.7% | . | 14%
COc1ccc(C(=O)NC(C)c2cccnc2)cc1S(=O)(=O)N(C)Cc1ccccc1 (stereo not given)
→ . | 3.9% | . | -9%
CC1C(=O)NN=C1C(=O)N/N=C/c1cccs1 (stereo not given)
→ -38% | 0.3% | -11 | -14%
CCCOc1ccc(C(=O)CCNc2ccc(C)c(Cl)c2)cc1
→ -1% | 0.5% | 7 | 3%
CC(=O)Nc1ccc(-n2nnnc2SCC(=O)NC2CCCC2)cc1
→ -4% | 2.5% | . | -2%
COC(Cn1c2c(c3cc(C)ccc31)CCCC2NCc1ccccc1)OC (stereo not given)
→ -1% | 0.2% | -8 | 14%
Cc1ccccc1CSc1nc2c(c(=O)[nH]1)CCCC2
→ 1% | . | 2 | .
O=C1C(Cl)=C(NC2CCCCC2)C(=O)N1Cc1ccccc1
→ -6% | ? | -6 | -12%
CCN1C(=O)N[C@@H](c2cccc(C(F)(F)F)c2)C(C(=O)OC)=C1C
→ . | -3.2% | 0 | 12%
CCCS(=O)(=O)c1nc(S(=O)(=O)c2ccc(C)cc2)c(N2CCN(CCO)CC2)s1
→ 10% | -0.8% | . | 7%
O=C(NCC1COc2ccccc2O1)C1CCCN(S(=O)(=O)c2cccc3cccnc23)C1 (stereo not given)
→ 5% | ? | -3 | 2%
OC1(c2ccc(Br)cc2)CN(c2ccccc2)C2=[N+]1CCS2 (stereo not given)
→ -7% | 1.4% | 2 | 1%
COc1ccc(Cl)cc1NC(=O)CN(C)CC(=O)Nc1ccccc1N1CCOCC1
→ 18% | 1.1% | -22 | 7%
CCCn1nnc(NC(=S)NC(=O)CC)n1
→ 0% | 0.3% | 2 | 2%
Cn1c(C(=O)N2CCCc3ccccc32)cc2c(=O)n3ccccc3nc21
→ -11% | . | -8 | .
N#Cc1ccc(C(=O)OCC(=O)Nc2cccnc2Cl)cc1
→ . | -0.4% | . | 5%
CCCN1CCN(CCNC(=O)Nc2ccccc2Cl)CC1
→ -5% | -0.9% | . | 10%
O=S(=O)(N/N=C\C=C\c1ccccc1)c1ccc(Cl)cc1
→ -3% | 1.1% | 2 | -3%
O=C(Cn1cc(C(F)(F)F)ccc1=O)N/N=C/c1ccc(Cl)cc1Cl
→ 2% | 7.0% | -9 | 0%
COc1ccccc1N1CCN(C2CCCN(C(=O)CCn3cncn3)C2)CC1 (stereo not given)
→ 0% | -3.8% | . | 3%
C[C@@H]1CN([C@@H](C)CO)C(=O)Cc2cc(NC(=O)Nc3ccc4c(c3)OCO4)ccc2O[C@@H]1CN(C)C(=O)NC1CCCCC1
→ . | 3.0% | . | 1%
COc1cccc(CN(C)CC(=O)Nc2ccccc2C(C)C)c1
→ -1% | 8.8% | -17 | -14%
Cc1cccc(-c2nc3c(c(SCC(=O)N(C)C)n2)CCCC3)c1
→ 0% | 0.0% | 2 | -2%
Cc1ccc(C2(C)NC(=O)N(CC(=O)Nc3ccc4c(c3)OCO4)C2=O)cc1 (stereo not given)
→ 1% | 1.1% | -5 | 4%
CCC(=O)NNc1ccc(Br)cc1
→ 5% | -0.6% | 3 | -16%
CC1=C(C(=O)Nc2ccccc2)C(c2ccco2)NC(=S)N1 (stereo not given)
→ 0% | -1.6% | 2 | -8%
CCCc1c(C)nn(C(=O)/C(C#N)=N/Nc2ccccc2[N+](=O)[O-])c1C
→ -3% | 1.7% | -3 | 5%
CC(=O)Nc1ccc(S(=O)(=O)Nc2nnc(C(C)C)s2)cc1
→ -2% | 1.3% | 9 | -8%
O=C(C1CCC(=O)N(C2CC2)C1)N(CCO)Cc1ccccc1 (stereo not given)
→ -2% | -2.7% | . | 7%
O=C(O)CCc1nc2ccccc2n(CCc2ccccc2)c1=O
→ -9% | 0.0% | 8 | 2%
CCOC(=O)[C@H]1[C@H]2COc3ccc(Br)cc3[C@@H]2N2C(=O)c3cc(Br)ccc3NC(=O)[C@@]12C
→ . | -3.7% | . | 1%
CC(=O)C1=C(O)C(=O)N(Cc2ccccc2)C1c1ccc(N(C)C)cc1 (stereo not given)
→ -8% | -0.5% | . | 2%
N#Cc1ccccc1S(=O)(=O)N1CCN(C(=O)c2cccc(S(=O)(=O)N3CCCC3)c2)CC1
→ . | -0.1% | . | -5%
CCOc1ccc(NC(=O)c2nccnc2CO)cc1
→ -38% | -1.6% | -4 | -13%
Cc1ccc(-n2c(SCC(=O)OC(C)C)nnc2-c2ccncc2)cc1
→ -4% | -2.0% | 1 | 3%
Cc1ccc(OCCSc2nc3ccccc3n2CC(=O)O)cc1
→ 0% | -3.2% | . | 0%
Cc1ccc(C)c(Cn2c3ccccc3c3cnn(CC(=O)NCCCN4CCCCC4)c(=O)c32)c1
→ 5% | -0.3% | . | -2%
COc1cccc(NC(=O)CN(C)C(=O)C(CCSC)NC(=O)c2ccco2)c1 (stereo not given)
→ . | -0.3% | . | -6%
CC(=O)c1ccc(NC(=S)N2CCCC(CO)C2)cc1 (stereo not given)
→ -7% | 5.0% | 6 | -7%
Cc1cccc(-c2nnc(NC(=O)c3ccc(N4C(=O)CCC4=O)cc3)s2)c1
→ -3% | 5.2% | 0 | 1%
COc1ccc(NS(=O)(=O)c2cccc(C(=O)N3CCCCCC3)c2)cc1
→ . | -3.8% | . | -1%
Cc1ccc2c(c1)c1c(c(=O)n(-c3ccccc3)c(=O)n1CC(=O)NCC1CCCO1)n2C (stereo not given)
→ -1%&-1% | -2.5% | . | 3%
CCC(C)(C(=O)NC1CCCCC1)N(C(=O)c1ccccn1)c1ccccc1 (stereo not given)
→ -2% | -1.9% | -3 | 0%
O=C(N/N=C/c1coc2ccccc2c1=O)c1cccc([N+](=O)[O-])c1
→ 1% | 1.6% | -10 | 0%
CCOC(=O)C1=C(C)OC(N)=C(C#N)C1c1ccsc1 (stereo not given)
→ -3% | 0.2% | 2 | 4%

Further structures
Values run as follows: miR-21 reporter | Rango-impB inh | GLA inh pH 4.5 | Rango dissoc inh
CCC(C)(C)n1nnnc1C(c1ccc(C)cc1)N1CCN(Cc2cccnc2)CC1 (stereo not given)
→ -2% | -0.7% | 0 | -23%
Cc1c(C(=O)N(C)CCC#N)oc2ccc(S(=O)(=O)N3CC(C)CC(C)C3)cc12 (stereo not given)
→ 3% | 6.5% | . | 2%
S=c1[nH]nc(-c2ccccc2)o1
→ -4% | 1.1% | 11 | 4%
C/C(=N\NC(=O)c1ccncc1)c1cccc(NC(=O)c2ccc(C(C)(C)C)cc2)c1
→ 26% | 4.4% | . | 2%
Cc1ccc(C2(c3noc(CN(C)Cc4cnn(C)c4)n3)CCCC2)cc1
→ 1% | 1.1% | -2 | 0%
Cn1c(N)c(C(=O)COC(=O)/C=C/c2cccc(Br)c2)c(=O)n(C)c1=O
→ . | -0.8% | . | 6%
Cc1cc(C)c(C#N)c(SCC(=O)NN2CC(=O)N(c3ccccc3F)CC2=O)n1
→ 4% | 1.9% | -1 | 1%
O=Cc1c(NC2CCCCC2)c2ccccc2[nH]c1=O
→ -5% | -1.0% | . | 7%
COc1ccccc1C(=O)NCCC(=O)NCC(c1ccc(F)cc1)N1CCOCC1 (stereo not given)
→ . | -3.9% | . | -4%
CCOc1ccc(NC(=O)C2CC(=O)N=C(N)S2)cc1 (stereo not given)
→ -9% | 0.8% | 1 | -2%
COc1ccccc1-n1cc(-c2ccc(Cl)cc2)[nH]c1=O
→ -6% | -0.5% | -3 | 4%
COc1ccccc1CNC(=O)COC(=O)c1cccnc1SCC(=O)NCc1ccccc1OC
→ -11% | -2.2% | -8 | 22%
CCCC(C)NC(=O)c1ccc(F)cc1 (stereo not given)
→ -13% | 6.4% | -10 | 7%
CCCc1cc(=O)oc2cc3occ(C)c3cc12
→ -3% | -1.0% | -1 | -1%
COCCNc1nc2sc3c(c2c(=O)n1Cc1ccco1)CCCCC3
→ -34% | -0.6% | 2 | -1%
